Screening results from PubChem.
PINK1 expr mod: changes PINK1 expression | PINK1 immunofluorescence, high-content cytometry, 24 h | Potency, µM (titrated, usually from 76.6 µM), without a hit: at the highest dose activation (PINK1 increase), most hits filed as activators | 410,000 tested, 0.2% active | AID 624263; active = well fitted activation curve with a large enough effect; inconclusive = small, poorly fitted or top-dose-only effect; inactive = flat fitted curve, though single readings scatter; cell line not stated here;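 further: potency means the concentration at half of the fitted maximal effect; % of control where 0% means no effect; nearly all actives have a fitted effect of over 65% in size; a mitochondrial uncoupler was the plate control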
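A stable cell line was treated with compounds at 5 concentrations for 24 hours, with CCCP as control. PINK1 levels and mitochondrial localization were measured by immunofluorescence with mitochondrial, cell and nuclear markers after fixation, read by laser-scanning cytometry.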
CtBP-E1A inh: CtBP/E1A binding inhibition; AlphaScreen GST-E1A/His-CtBP binding, 1536-well; hits give low values; control for the full effect not named in the record; activity change, % (concentration not given with the values); 340,000 tested, 0.49% active; in the data active means activity change below about -65%; inconclusive means about -30% to -65%; inactive means above about -30%; further: on the % scale 0 is the no-effect control and ±100 the full control effect
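Homogeneous bead-based format: GST-tagged E1A captured on glutathione donor beads, His-tagged CtBP on nickel acceptor beads; compounds precede bead addition by 2 h at 37 °C.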
D2 ag: agonists of human D2 dopamine receptor (beta-arrestin) | AID 624465 | DiscoveRx PathHunter D2 beta-arrestin, luminescence, 90 min; 100% = 57 uM dopamine signal | 360,000 tested, 0.084% active | activation, % (concentration not given with the values) | P14416; in the data active = activation above about 40%; inconclusive = about 15% to 40%; inactive = below about 15%; further: compound concentration not given in the record; the text of the record calls up to 30% inactive
Target sequence (P14416 whole entry, looked up): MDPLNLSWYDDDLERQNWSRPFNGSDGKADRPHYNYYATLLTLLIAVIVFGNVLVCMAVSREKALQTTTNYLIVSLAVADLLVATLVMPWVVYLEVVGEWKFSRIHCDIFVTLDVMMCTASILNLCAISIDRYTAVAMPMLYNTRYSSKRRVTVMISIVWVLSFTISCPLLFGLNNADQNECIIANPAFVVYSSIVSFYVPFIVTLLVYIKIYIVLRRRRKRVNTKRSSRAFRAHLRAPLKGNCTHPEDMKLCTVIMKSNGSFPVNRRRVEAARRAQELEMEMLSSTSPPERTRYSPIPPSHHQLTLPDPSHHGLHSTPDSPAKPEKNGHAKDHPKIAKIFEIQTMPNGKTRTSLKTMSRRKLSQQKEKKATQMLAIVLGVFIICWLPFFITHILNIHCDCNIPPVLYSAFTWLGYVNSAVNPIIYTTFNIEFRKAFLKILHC
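DiscoveRx PathHunter D2 beta-arrestin cells (2,100/well) attached overnight, then compound-stimulated 90 min at 37 C in HBSS/10 mM HEPES/0.1% Tween-20 buffer; beta-galactosidase complementation read by luminescence after 1 h at ambient temperature. Dopamine 57 uM final (EC100) as control.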
Sfp inh: blocks B. subtilis Sfp PPTase activity | Biochemical Sfp PPTase activity, qHTS | Q9F4F7 | Potency, µM, for inactives: max response, negative = inhibition, most hits filed as inhibitors | AID 1490 | 310,000 tested, 3.5% active; active means well fitted inhibition curve with a large enough effect; inconclusive means small, poorly fitted or top-dose-only effect, or another doubt; inactive means no such curve, though single readings can be large or run the other way;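 further: the enzyme is Sfp with the accession as filed and its product quenches rhodamine fluorescence; potency means the concentration at half of the fitted maximal effect; 0% = enzyme reaction without inhibitor and -100% = no enzyme wells; top concentration of the series not given in the record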
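Compounds were incubated with enzyme (final 15 nM) for 15 min at room temperature before substrate addition started the reaction. Fluorescence at 525 nm excitation, 598 nm emission was recorded immediately and after 30 minutes.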
Six1-Eya2 blk: inhibitors of human Six1/Eya2 interaction; activity change, % (no concentration beside the values); 360,000 tested, 0.56% active; AlphaScreen GST-Six1/His-Eya2 binding, biochemical; hits give low values; control for the full effect not named in the record; in the data active = activity change below about -65%; inconclusive = about -30% to -65%; inactive = above about -30%; further: on the % scale 0 is the no-effect control and ±100 the full control effect; compound concentration not given in the record
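Compounds are tested against tagged Six1 and Eya2 proteins bridged by glutathione donor and nickel acceptor beads; after a one-hour incubation at 37 °C without light, AlphaScreen emission is recorded.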
TRPV1 potentiator: enhances activation of the human vanilloid receptor TRPV1. Q8NER1. TRPV1-expressing cells, Fluo-8 calcium influx, capsaicin EC20 potentiation; host cell line not named in the record; control for the full effect not named in the record. potentiation, % at 8.33 µM. 320,000 tested, 0.02% active. AID 540277; active means potentiation above 80%; inconclusive means 30% to 80%; inactive means below 30%; further: 0% is about no effect
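TRPV1-expressing cells were cultured overnight at 35.5C and loaded with Fluo-8 calcium dye for 40 to 90 min at room temperature. After a 10 s baseline, compound was added and calcium influx was read kinetically for 3 min (ex 480/em 520 nm).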
D2 PAM: positive allosteric modulators of human D2 dopamine receptor. 360,000 tested, 0.23% active. AID 624464. P14416. potentiation, % (concentration not given with the values). DiscoveRx D2 beta-arrestin cells, luminescence, 90 min; 100% = 57 uM dopamine signal; active = potentiation of 50% or more; inconclusive = 30% to 50%; inactive = 30% or less;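 further: compound concentration not given in the record; tested on top of an EC20 dose of dopamine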
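PathHunter D2 cells, attached overnight at 37 deg C, received compound in DMSO plus dopamine at EC20 (50 nM final) for 90 min at 37 deg C. Beta-arrestin recruitment was read as luminescence after 1 h with detection reagent at ambient temperature.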
* hit, by the source's call; ? = inconclusive; / = not tested or not shown; [ ] = remark or other dose.

No.	Compound	PINK1 expr mod	CtBP-E1A inh	D2 ag	Sfp inh
1	O=c1c2cc([N+](=O)[O-])ccc2nc2n1CCC2	1.1%	3.3	-1.1	17.6%
2	Cc1cc(C(=O)COC(=O)c2ccc[nH]c2=O)c(C)n1C1CC1	-1.9%	-9.3	-5.8	5.6%
3	CCc1ccc(N2CC(C(=O)Nc3ccc(S(=O)(=O)Nc4nccs4)cc3)CC2=O)cc1 (stereo unspecified)	1.9%	-2.6	-3.5	34.5%[activator]
4	Nc1c(NCc2ccccc2)c(=O)c1=O	4.3%	1.9	2.7	4.2%
5	O=C1CCN(Cc2nc(-c3ccc(Cl)cc3)no2)CCN1	-0.1%	9.0	3.5	5.3%
6	O=C(CSc1nc2ccccc2c(=O)n1CCCO)NC1CC1	0.9%	5.5	3.0	/
7	CCCC(=O)N/C(N)=N/c1nc(C)c2ccccc2n1	3.7%	-0.2	-2.1	10.5%
8	O=C(Nc1ccc(S(=O)(=O)Nc2ncccn2)cc1)C12CC3CC(CC(Cl)(C3)C1)C2	-1.3%	2.9	1.3	/

No.	Six1-Eya2 blk	TRPV1 potentiator	D2 PAM
1	4.2	9.3	-6.9
2	-4.4	29.6	-5.6
3	-3.0	-3.3	-1.7
4	3.2	8.9	-9.7
5	-4.9	-1.5	-11.3
6	2.8	3.7	-1.4
7	-7.4	-1.1	-10.4
8	-2.9	/	-2.3

(continued)
No.	Compound	PINK1 expr mod	CtBP-E1A inh	D2 ag	Sfp inh
9	Cc1ccc(-c2cc(C(=O)Nc3nccs3)c3ccccc3n2)o1	3.6%	-2.8	-4.0	?
10	CCc1ccc(NC(=O)C2(C)Cc3ccccc3C(=O)O2)cc1 (stereo unspecified)	1.5%	-3.1	-0.9	14.0%
11	O=C(C[n+]1cc(Br)cc2ccccc21)c1ccccc1	39.8µM*	/	-1.8	-7.1%
12	C=CCN1C(=NC(=O)CCC(=O)O)SC2CS(=O)(=O)CC21 (stereo unspecified)	-0.7%	12.8	-0.6	5.9%
13	O=C(COC(=O)c1n[nH]c(=O)c2ccccc12)c1ccccc1	-1.1%	-4.3	-4.2	12.6%
14	Cn1cccc1Cc1nnc(SCC(=O)NC2CCCCC2)n1CCc1ccccc1	1.7%	-4.5	1.8	-7.0%
15	CCC(C)(C)n1nnnc1C(c1ccc(C)cc1)N1CCC(C)CC1 (stereo unspecified)	25.3%	-0.8	-2.7	2.5%
16	CCc1cc2c(CN3CCN(Cc4ccccc4)CC3)cc(=O)oc2cc1O	6.4%	0.1	-2.0	-11.9%

No.	Six1-Eya2 blk	TRPV1 potentiator	D2 PAM
9	?	2.6	-16.2
10	-1.1	-4.2	-7.3
11	83.3	5.5	-6.3
12	4.0	-8.1	3.2
13	11.7	14.0	-16.5
14	-15.2	1.9	-1.9
15	-0.6	0.4	3.2
16	-6.5	3.1	-26.0

(further entries)
No.	Compound	PINK1 expr mod	CtBP-E1A inh	D2 ag	Sfp inh
17	Cc1cc(SC(C)C(=O)Nc2c(C)n(C)n(-c3ccccc3)c2=O)nc2ccccc12 (stereo unspecified)	0.0%	1.6	6.9	6.7%
18	CC(C)CC(=O)Nc1cc(NC(=O)CC(C)C)cc(C(=O)NC(C)(C)C)c1	2.0%	2.6	-2.0	4.2%
19	O=C(Cn1nc(Cc2ccncc2)c2ccccc2c1=O)N1CCN(C(=O)c2ccco2)CC1	1.2%	2.4	-3.8	13.0%
20	CCCc1ccc(S(=O)(=O)Nc2ccc(C)c(NS(C)(=O)=O)c2)cc1	-1.9%	-4.2	0.8	10.3%
21	CC(C)NC(=O)c1cccc2c(-c3ccc(F)c(F)c3)coc12	1.2%	-28.9	2.6	/
22	CCN(CC(=O)Nc1cc(Cl)ccc1C)C(=O)Cc1sc(C)nc1-c1ccc(F)cc1	2.8%	0.4	-4.7	/
23	COc1ccc(NC(=O)N(C)C[C@@H]2Oc3cc(C#CCN(C)C)ccc3S(=O)(=O)N([C@H](C)CO)C[C@H]2C)cc1	2.4%	15.5	-7.7	/
24	O=C1c2c(O)cc(O)cc2O[C@H](c2ccc(O)cc2)[C@H]1O	1.8%	6.5	-2.6	/

No.	Six1-Eya2 blk	TRPV1 potentiator	D2 PAM
17	4.0	3.2	0.7
18	-9.5	6.8	-6.8
19	-1.5	-9.7	-2.4
20	-1.6	/	-7.8
21	4.3	/	-19.0
22	4.9	-8.2	-1.9
23	6.5	/	6.2
24	-1.0	/	-21.9

Next section:
No.	Compound	PINK1 expr mod	CtBP-E1A inh	D2 ag	Sfp inh
25	C[C@@H]1CN([C@H](C)CO)C(=O)CCCn2nncc2CO[C@H]1CN(C)S(=O)(=O)c1cccs1	-0.2%	0.5	-7.6	/
26	CC(C)(C)CNc1cc(N2CCOCC2)ccc1[N+](=O)[O-]	-2.3%	-25.6	-1.5	0.9%
27	CCOC(=O)CSC1=N/C(=C\c2cc(OC)c(OC)c(OC)c2)C(=O)N1C	1.7%	1.6	-3.6	3.8%
28	Cc1onc(-c2ccccc2)c1C(=O)N1CCN(c2ccccn2)CC1	-0.2%	0.6	-6.7	14.6%
29	CCOC(=O)Cc1csc(NC(=O)CSc2cc(Cl)ccc2Cl)n1	5.8%	-12.6	-0.2	-13.6%
30	COc1ccc(C(=O)NCC(c2ccco2)N2CCc3ccccc32)cc1 (stereo unspecified)	2.2%	-14.2	-1.2	/
31	COc1ccc2c(/C=N/Nc3ccc(C(=O)O)cc3)c[nH]c2c1	0.2%	-20.6	8.4	-26.1%
32	CC(=O)c1ccc(NC(=O)C(C)N(C)CC(=O)Nc2ccc(N3CCOCC3)cc2)cc1 (stereo unspecified)	2.8%	0.0	-2.5	?

No.	Six1-Eya2 blk	TRPV1 potentiator	D2 PAM
25	1.4	/	4.4
26	-16.7	-7.5	-4.3
27	-1.5	5.2	-8.3
28	0.1	11.7	-16.2
29	11.2	3.0	-8.6
30	-12.1	-3.7	5.2
31	-17.9	8.5	6.7
32	-4.7	1.4	2.2

(more compounds)
No.	Compound	PINK1 expr mod	CtBP-E1A inh	D2 ag	Sfp inh
33	Cc1ccc(C)c(-n2c(CNc3ccc(F)cc3)nnc2SCC(N)=O)c1	-1.2%[38.3 µM]	4.5	-6.7	6.4%
34	COc1ccc(C2C(C(C)=O)=C(C)N=c3s/c(=C\c4ccco4)c(=O)n32)c(OC)c1 (stereo unspecified)	/	?	-1.1	50.1µM*
35	O=C(NC(Nc1ccccn1)C(Cl)(Cl)Cl)c1ccccc1 (stereo unspecified)	11.2%	0.3	-0.7	8.9%
36	CC(C)(CO)NS(=O)(=O)c1ccc2c(c1)oc(=O)c1cc(S(=O)(=O)NC(C)(C)CO)ccc12	2.5%	1.6	-2.9	0.7%
37	Cc1cc(C(=O)COC(=O)CC2Sc3ccccc3NC2=O)c(C)n1-c1ccccc1 (stereo unspecified)	-0.3%	-7.5	-3.7	1.0%
38	COc1ccc(/C=N/NC(=O)c2cc(-c3ccc4c(c3)OCO4)n[nH]2)cc1OC	11.9%	2.9	14.3	-10.1%
39	CC1(C)Cc2c(c(-c3ccco3)nc3sc4c(NCCO)ncnc4c23)CO1	2.1%	/	-2.2	50.1µM*
40	COCCOC1CCN(C(=O)c2cc(COc3ccc(F)cc3F)on2)CC1	-0.8%	6.5	-2.3	12.8%

No.	Six1-Eya2 blk	TRPV1 potentiator	D2 PAM
33	4.3	20.1	-17.2
34	?	-10.7	-10.6
35	-0.5	-13.2	1.9
36	-7.2	2.7	-10.6
37	-12.2	-9.3	-6.0
38	-3.8	4.0	?
39	3.3	-7.6	-7.4
40	-1.4	-17.9	-21.9

The last 6 entries of the section before come first, to join the parts.
No.	Compound	PINK1 expr mod	CtBP-E1A inh	D2 ag	Sfp inh
35	O=C(NC(Nc1ccccn1)C(Cl)(Cl)Cl)c1ccccc1 (stereo unspecified)	11.2%	0.3	-0.7	8.9%
36	CC(C)(CO)NS(=O)(=O)c1ccc2c(c1)oc(=O)c1cc(S(=O)(=O)NC(C)(C)CO)ccc12	2.5%	1.6	-2.9	0.7%
37	Cc1cc(C(=O)COC(=O)CC2Sc3ccccc3NC2=O)c(C)n1-c1ccccc1 (stereo unspecified)	-0.3%	-7.5	-3.7	1.0%
38	COc1ccc(/C=N/NC(=O)c2cc(-c3ccc4c(c3)OCO4)n[nH]2)cc1OC	11.9%	2.9	14.3	-10.1%
39	CC1(C)Cc2c(c(-c3ccco3)nc3sc4c(NCCO)ncnc4c23)CO1	2.1%	/	-2.2	50.1µM*
40	COCCOC1CCN(C(=O)c2cc(COc3ccc(F)cc3F)on2)CC1	-0.8%	6.5	-2.3	12.8%
41	CN(C)/C=C1/NC(=S)NC1=O	2.5%	0.0	-2.9	79.4µM*
42	N#Cc1c(C(F)(F)F)cc(-c2ccc(F)cc2)nc1SCC(=O)O	-0.8%	-10.5	-2.4	16.0%
43	CC(C)(O)C#Cc1ccc(C(=O)N2CCC(C(N)=O)(N3CCCCC3)CC2)cc1	0.2%	7.3	-0.3	13.3%
44	CC(=O)Nc1ccc(SCC(=O)NC(=O)c2ccc(S(=O)(=O)N(C)C)cc2)cc1	0.4%	7.5	-3.1	/
45	CC1CCN(C(=O)c2ccc(-n3cnnn3)cc2)CC1	-0.9%	4.5	-1.4	10.9%
46	CSc1ccccc1NC(=O)CN(C)Cc1c(O)ccc2ccccc12	11.8%	5.8	1.6	-5.7%
47	CCN(CC)C(=O)C1=C(C)N(CCCOC)C(=O)C(CC(=O)NC(c2ccccc2)c2ccccc2)C1 (stereo unspecified)	-0.1%	-2.6	-8.1	/
48	Cc1ccc(OCCCCc2c(C)n[nH]c2C)cc1	2.0%	/	-4.0	9.1%
49	CC1(C)Cc2c(cnn2-c2cccc(F)c2)C(NC(=O)CSc2ccncc2)C1 (stereo unspecified)	0.0%	3.7	-2.5	9.2%
50	CCC(C)(C)n1nnnc1C(c1ccc(F)cc1)N1CCC(C(N)=O)CC1 (stereo unspecified)	-2.3%	-9.9	-0.7	-6.4%

No.	Six1-Eya2 blk	TRPV1 potentiator	D2 PAM
35	-0.5	-13.2	1.9
36	-7.2	2.7	-10.6
37	-12.2	-9.3	-6.0
38	-3.8	4.0	?
39	3.3	-7.6	-7.4
40	-1.4	-17.9	-21.9
41	24.8	?	-1.8
42	11.6	2.9	1.0
43	-1.9	-14.9	25.7
44	3.0	/	4.1
45	11.7	-1.7	-13.2
46	-0.9	-2.6	-8.5
47	2.8	/	-3.9
48	7.6	-6.9	-26.5
49	1.7	-13.7	-5.3
50	60.2	-0.1	-2.2
